# Screening results deposited in PubChem by several laboratories.
# RecA intein inh – Mtb RecA intein splicing inhibition. P9WHJ3. cell-free RecA intein splicing, fluorescence. inhibition, %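 (about 9 µM by stock and volumes)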. actives 0.75% (n = 290,000). AID 2221; in the data active = inhibition above about 30%; inconclusive = no clear call, values can overlap the other calls;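 also: 0% = vehicle wells and 100% = reference inhibitor control wells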
# Target sequence (P9WHJ3 whole entry, looked up): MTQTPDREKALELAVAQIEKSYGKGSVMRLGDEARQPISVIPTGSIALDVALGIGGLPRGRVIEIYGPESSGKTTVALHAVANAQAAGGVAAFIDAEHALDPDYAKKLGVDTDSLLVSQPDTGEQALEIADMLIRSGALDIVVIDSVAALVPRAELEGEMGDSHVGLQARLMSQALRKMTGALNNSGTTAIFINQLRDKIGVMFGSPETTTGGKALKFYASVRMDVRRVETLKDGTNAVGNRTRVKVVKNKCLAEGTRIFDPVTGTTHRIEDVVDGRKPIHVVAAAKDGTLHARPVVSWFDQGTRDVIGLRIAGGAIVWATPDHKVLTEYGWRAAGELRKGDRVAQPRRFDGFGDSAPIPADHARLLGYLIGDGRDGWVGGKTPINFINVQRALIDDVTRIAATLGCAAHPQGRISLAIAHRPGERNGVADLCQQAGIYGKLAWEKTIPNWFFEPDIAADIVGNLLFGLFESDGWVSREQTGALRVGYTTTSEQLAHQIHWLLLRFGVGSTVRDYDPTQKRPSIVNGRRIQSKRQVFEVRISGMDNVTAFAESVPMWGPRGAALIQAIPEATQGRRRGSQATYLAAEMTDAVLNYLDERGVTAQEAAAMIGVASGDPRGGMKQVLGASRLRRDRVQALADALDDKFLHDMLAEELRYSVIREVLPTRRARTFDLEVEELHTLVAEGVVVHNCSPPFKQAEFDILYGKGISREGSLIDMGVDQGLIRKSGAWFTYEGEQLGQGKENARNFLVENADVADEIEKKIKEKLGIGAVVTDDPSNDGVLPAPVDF
# YopH PTP inh – YopH (Yersinia) phosphatase inhibition; fluorescence Ex485/Em525; inhibition, %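 (about 10 µM by stock and volumes)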; actives 0.16% (n = 140,000);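 active = inhibition of 50% or more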;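 also: controls were vehicle for no effect and minimum signal wells for full effect; inactives centre near -20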
# Mtb H37Rv – M. tuberculosis H37Rv growth inhibitors, H37Rv strain (AID 1626); M. tuberculosis H37Rv growth inhibition; higher % means a stronger effect; actives 0.95% (n = 220,000); inhibition, % at 10 µM; hits with a dose series show IC50 in µM;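 active = confirmed in a dose series; inconclusive = inhibition above 80% but not taken into the dose series; inactive = below 80% or under 30% at every dose of the series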;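 also: bacteria incubated seven days before Alamar blue readout; 0% = bacteria only wells and 100% = bacteria with antibiotic wells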
# Arbovirus anti – arbovirus infection inhibition. actives 0.37% (n = 200,000). arbovirus infection cell-based antiviral screen. inhibition, % at 10 µM;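 active = inhibition from about 30%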;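 also: bluetongue infection of BSR cells; cell survival read as ATP light after 72 h; 0% = infected wells without compound and 100% = uninfected wells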
# Mtb bLac sens – beta-lactam sensitization of Mtb H37Rv; inhibition, % at 25 µM; M. tuberculosis H37Rv growth with meropenem, percent inhibition; hits of this screen are not shown here; actives 0.27% (n = 330,000); AID 434955;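 active = about 74% or more and at least 40 points above the plate without the antibiotic, then above 30% in a dose series; inconclusive = first-round hits that could not be retested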;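 also: growth measured after seven days incubation then overnight dye step; 0% = bacteria only wells and 100% = bacteria with antibiotic; twin plates without the antibiotic show which effects depend on it; some results filed as inactive read as strong as hits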
# Arbovirus anti repeat – second read-out of Arbovirus anti, no call of its own (marks repeat the call); inhibition, %; measured here: 10K subset replicate screen; many hits read low in the repeat;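 first of two repeat runs on a subset; 0% = infected and 100% = uninfected wells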
# Active calls of the source: *; ? = inconclusive; nt = not tested or not shown. Only part of the results is shown (hit frequency here may not be typical).
SMILES,RecA intein inh,YopH PTP inh,Mtb H37Rv,Arbovirus anti,Mtb bLac sens,others
CCCn1cc(CN2CCN(Cc3ccc(C)o3)C(CCO)C2)c(C)n1 (centres undefined),-1.3,nt,-3%,6,-3,
COc1ccc(C(=O)NCCc2nnc3ccc(SCC(=O)Nc4ccccc4F)nn23)cc1,2.8,nt,nt,nt,1,
CCOC(=O)c1cnc2c(c(C)nn2CC)c1NC1CC1,-0.3,nt,4%,2,0,
CNc1nc(SCc2ccc(C)cc2)nc2c1CCCC2,1.8,-39,?,-3,100,
CCC(C)[C@H](NC(=O)[C@@H]1CSC2c3ccccc3C(=O)N21)C(=O)NCc1ccncc1 (some centres undefined),-1.5,nt,nt,nt,-4,
Cc1ccc(N2C(=O)CC(=O)NC2=O)cc1,1.9,-2,-6%,-2,-3,
COc1cccc(CNC(=O)C2CCN(S(=O)(=O)c3ccc4c(c3)OCCO4)CC2)c1,-3.0,nt,nt,nt,1,
COc1cccc(NC(=S)NC2CC(C)(C)NC(C)(C)C2)c1,-1.3,-26,3%,-2,-4,
COC(=O)c1cc(NC(=O)c2c(Cl)cnn2C)cc(C(=O)OC)c1,2.5,-11,4%,1,-6,
Cc1ccc(-c2nnc(-n3nnc4ccccc43)c3ccccc23)cc1,0.0,-16,-1%,-12,-2,
COc1ccc(C2C(C#N)=C(N)N(c3cccnc3)C3=C2C(=O)CCC3)cc1Cn1cc([N+](=O)[O-])cn1 (centres undefined),0.5,-37,1%,11,2,
O=C(CCc1nc2ccccc2c(=O)[nH]1)Nc1ccc(N2CCCCC2)cc1,1.9,nt,0%,20,-5,
COc1ccc(/C=C/c2noc(-c3ccccc3O)n2)cc1,0.1,-39,-16%,-13,6,
Cc1ccc(NC(=O)CCOc2ccccc2)cc1S(=O)(=O)Nc1ccccc1Cl,2.6,-21,12%,8,4,
COc1ccc(CCN(C)CCCN2CC(c3ccccc3)CC2=O)cc1OC (centres undefined),nt,nt,-1%,2,1,
COC(=O)CSc1nc(N)nc(C)c1Cl,-0.4,nt,5%,3,-8,
CCCCOCC(O)CN1CCN(C(C)=O)CC1 (centres undefined),-1.8,-15,-3%,3,-5,
N#CC12CCCCC1CC1CCCCC1(C#N)N2N (centres undefined),-2.6,nt,-6%,nt,-3,
CCCc1cc2c(OC(=O)CC)c(-c3ccc(C(=O)OCC)o3)c(=O)oc2cc1OC,-6.5,-12,0%,58*,4,
COc1ccc(C(=O)CSc2nnc(-c3ccco3)n2C)cc1,-2.5,4,-1%,3,-3,
O=C(c1ccc(CNc2c(N3CCOCC3)c(=O)c2=O)cc1)N1CC=C(c2ccccc2)CC1,nt,14,?,4,99,Arbovirus anti repeat=-1
CC(C)Sc1nc2ccc(Br)cc2[nH]1,3.0,nt,0%,2,-7,
Cc1cc(C)cc(N2C(N)=NC(N)=NC2c2ccccc2F)c1 (centres undefined),4.1,nt,nt,nt,11,
O=C1Cc2ccccc2C(=O)N1Cc1cccc(Cl)c1,0.9,nt,nt,nt,1,
CCN1CCN(Cc2cccc(Oc3ccc(Cl)cc3)c2)CC1,2.3,-18,-1%,-11,8,
CCOc1ccc2nc(NCCNC(=O)C(C)(C)C)c(C)cc2c1,-3.2,nt,1%,4,-19,
NS(=O)(=O)c1ccc(NC(=O)c2ccc(S(=O)(=O)N3CCc4ccccc43)cc2)cc1,2.3,nt,-1%,14,-3,
COc1ccc(-n2nnc3c(=O)n(Cc4cccc(C)c4)cnc32)cc1,1.0,-27,-11%,6,-8,
CCOC(=O)C1CCN(C(=O)Nc2ccc(Cl)cc2Cl)CC1,-0.2,-15,3%,0,2,
Cc1cccc(S(=O)Cc2ccc(C(=O)NC3CCN(Cc4ccccc4)CC3)o2)c1 (centres undefined),-0.3,nt,nt,nt,5,
COc1ccc(N2C(=O)C3CCCN3C2c2cccc(OC)c2)cc1 (centres undefined),-1.6,-20,-6%,3,0,Arbovirus anti repeat=3
NS(=O)(=O)c1ccc(CCNCc2cccnc2)cc1,-1.6,nt,nt,nt,0,
O=C(CSC1=NCCS1)N1CCOCC1,0.9,-10,-2%,0,-11,
COc1ccc(C2C(C(=O)c3cccs3)=C(O)C(=O)N2Cc2cccnc2)cc1OC (centres undefined),-0.5,nt,-11%,8,-2,
Cc1ccccc1C(=O)NNC(=O)C1CC(=O)N(Cc2ccccc2)C1 (centres undefined),-0.2,nt,nt,nt,-4,
O=C(Cc1csc(-c2cccc(Cl)c2)n1)Nc1cccc(S(=O)(=O)NC2=NCCC2)c1,5.5,nt,nt,nt,0,
CCN(CC)CC(=O)c1c[nH]c2ccc(OC)cc12,2.0,-19,-5%,6,-3,
COCCCNC(=O)Cn1cc(/C=C(\C#N)C(=O)N2CCN(c3ccccc3)CC2)c2ccccc21,0.9,-26,3%,5,4,
COC(=O)c1ccc(C2=NOC(C)(c3nnc(-c4cccc(Cl)c4)o3)C2)cc1 (centres undefined),4.7,nt,15%,nt,-1,
NC(=O)C1CNc2ccccc2O1 (centres undefined),-1.8,13,-10%,-3,0,
O=C(Cc1ccc([N+](=O)[O-])cc1)Nc1ccc(C(=O)N2CCOCC2)cc1,-5.4,nt,nt,nt,-4,
CSc1cccc(NS(=O)(=O)c2ccc3c(c2)CCN3C(C)=O)c1,0.6,nt,nt,nt,6,
COC(=O)c1ccc(CNC(=O)c2ccc(COc3ccccc3)cc2)cc1,-1.1,6,42%,8,11,
O=[N+]([O-])c1ccc(Cl)c(/C=N/N2CCN(C3c4ccccc4-c4ccccc43)CC2)c1,nt,-30,-3%,8,nt,
S=C(Nc1ccc(Br)cc1)N1CCCC1,5.4,-24,7%,-1,7,
Cc1cc(C(=O)Nc2cccc3cccnc23)ccc1[N+](=O)[O-],3.4,nt,3%,1,-2,
COc1ccc(OC)c(NC(=O)Cc2nn(C)c(=O)c3ccccc23)c1,0.6,-10,15%,8,0,
CCOC(=O)c1[nH]c(C)c(C(=O)NCc2ccc(C)cc2)c1C,0.3,-45,8%,-2,?,
COc1cc(CN2CCC(C(=O)NCC(C)(C)CN(C)C)CC2)ccc1OCc1ccccc1,-4.9,nt,nt,nt,-2,
Cc1ccc2ncnc(Oc3ncccc3NC(=O)C(C)(C)C)c2c1,nt,nt,0%,nt,-4,
NC(=O)CN1CCCC1=O,4.2,-37,-2%,3,-2,
Cc1nc(Nc2ccccc2O)c2oc3ccccc3c2n1,0.9,nt,nt,nt,-5,
NS(=O)(=O)c1ccc(NC2=CC(c3ccc([N+](=O)[O-])cc3)N(c3ccc(S(N)(=O)=O)cc3)C2=O)cc1 (centres undefined),-2.3,nt,-20%,nt,6,
COc1ccc(N2CCN(c3ccnc4cc(Cl)ccc34)CC2)cc1,1.2,nt,nt,nt,88,
O=C(CSc1nnc2scc(-c3ccc(F)cc3)n12)NCc1ccco1,-0.3,-35,-3%,1,-4,
Cc1cc(NC(=S)N(Cc2ccc(Br)cc2)Cc2ccc(C(=O)O)cc2)ccc1Cl,22,nt,-4%,2,4,
CC(=O)Nc1cccc(-c2nc3ccccc3c(=O)o2)c1,4.9,2,9%,-1,27,
CN(CC#CC1(O)c2ccccc2-c2ccccc21)Cc1ccccc1,-1.5,-23,-3%,22,1,
CCC(C)(C)n1nnnc1C(c1cc2cc(C)cc(C)c2[nH]c1=O)N1CCN(Cc2ccc3c(c2)OCO3)CC1 (centres undefined),1.1,6,nt,-8,nt,
O=c1[nH]cc([N+](=O)[O-])cc1Br,-0.9,-22,37%,13,12,

# Continued (four carried over from the part before).
SMILES,RecA intein inh,YopH PTP inh,Mtb H37Rv,Arbovirus anti,Mtb bLac sens,others
CC(=O)Nc1cccc(-c2nc3ccccc3c(=O)o2)c1,4.9,2,9%,-1,27,
CN(CC#CC1(O)c2ccccc2-c2ccccc21)Cc1ccccc1,-1.5,-23,-3%,22,1,
CCC(C)(C)n1nnnc1C(c1cc2cc(C)cc(C)c2[nH]c1=O)N1CCN(Cc2ccc3c(c2)OCO3)CC1 (centres undefined),1.1,6,nt,-8,nt,
O=c1[nH]cc([N+](=O)[O-])cc1Br,-0.9,-22,37%,13,12,
COc1ccc(CNC(=O)c2c(C)cc(=O)oc2C)cc1OC,-1.0,-3,5%,5,-6,
CC1(C)CC(=O)C(C(=O)/C=C/NCCc2ccccc2)C(=O)C1,3.1,-14,-1%,21,-12,
Cc1ccc(N=Nc2c(C)[nH][nH]c2=O)c(C)c1,7.2,1,-7%,-19,-5,
CCO[C@H]1OC(C(N)=O)=C[C@@H](c2csc3ccccc23)[C@@H]1CCCO,3.2,nt,-10%,2,-11,
COc1ccc(-c2nc(CS(=O)CC(=O)NCCN3CCCCC3C)c(C)o2)cc1OC (centres undefined),-3.4,nt,nt,nt,-4,
COCC(=O)Nc1nnc(C2CCCCC2)s1,1.1,-30,-1%,-2,-1,
O=c1cc(C(F)(F)F)[nH]c2ccccc12,-0.1,nt,-9%,nt,-1,
N/C(=N\NS(=O)(=O)c1cc(C(F)(F)F)cc(C(F)(F)F)c1)c1ccccn1,0.0,nt,-5%,nt,-6,
COc1ccc(N(C(=O)CNC(=O)c2cccs2)C(C(=O)NCC2CCCO2)c2ccccc2)c(OC)c1 (centres undefined),-1.5,nt,nt,nt,-2,
Cc1c(NC(=O)CCCOc2ccccc2)cccc1[N+](=O)[O-],1.5,-24,1%,1,9,
CCOC(=O)c1c(-c2ccc(-c3ccccc3)cc2)csc1NC(=O)CCC(=O)O,3.4,nt,nt,nt,1,
COc1ccc(NS(=O)(=O)c2ccc(NC(=S)NC(=O)/C=C/c3ccc(C)cc3)cc2)nn1,0.7,-17,-5%,5,6,
CC(C)(C)c1ccc(C(=O)NC(=S)Nc2sc3c(c2C#N)CCC3)cc1,-0.4,-30,11%,3,1,
Cc1ccc(C(=O)OCC(=O)Nc2cccc(Cl)c2C)c(O)c1,-0.4,nt,-8%,nt,-3,
CN(C)S(=O)(=O)c1cc([N+](=O)[O-])ccc1N1CCCCCC1,4.9,-17,-3%,6,1,
CNc1nc(Cl)c(SC)c(NC2CCCCC2)n1,1.4,nt,1%,11,3,
COc1ccc2nc(/N=C/c3c(O)n(-c4cccc(Cl)c4)c(=O)[nH]c3=O)sc2c1,-0.3,-57,55%,5,30,
Cc1ccc(NC(=O)c2ccc(Cl)cc2[N+](=O)[O-])nc1,3.1,nt,-3%,-10,6,
Cc1nc(N2CCOCC2)c2oc3ccccc3c2n1,-0.5,-29,-3%,5,-12,
O=C(NCCCc1nc2ccccc2[nH]1)c1cccs1,1.3,nt,3%,3,-1,
O=C1/C(=N\S(=O)(=O)c2cccs2)C([n+]2ccccc2)=C([O-])c2ccccc21,41*,nt,-13%,nt,1,
O=c1cc(CSc2nnnn2-c2ccccc2)nc(Nc2ccc(F)cc2)[nH]1,0.4,-26,-3%,31*,8,
CN1CCN(C(=O)C2C3C=CC(C3)C2C(=O)O)CC1 (centres undefined),-1.9,-44,1%,8,1,
CSc1ccccc1OCc1cc(C(=O)N2CCN3CCCC3C2)no1 (centres undefined),0.6,nt,nt,nt,2,
Cc1cccc(N(C2C=CS(=O)(=O)C2)S(=O)(=O)c2ccccc2)c1 (centres undefined),0.3,-12,-2%,-1,-4,
CN(Cc1ccccc1F)C(=O)CN1c2cccc3cccc(c23)S1(=O)=O,-4.6,nt,nt,nt,3,
COCCN(Cc1ccccc1)P(=O)(O)c1ccccc1OCC(=O)O,-0.5,-25,-13%,-1,2,
CCc1ccc(O)c(N=Cc2ccccc2O)c1,-1.2,-39,-7%,5,10,
O=C(c1ccccc1)c1nn(-c2cccc(Cl)c2)c2nc(-c3ccccc3)cc(=O)n12,0.3,-3,nt,-4,27,
Fc1ccccc1C1CCN(Cc2nc(CC3CC3)no2)C1 (centres undefined),-0.1,nt,0%,-3,-11,
Cc1ccc(-n2nc3c(=O)n(CC(=O)NCc4ccccc4)nc(C)c3c2C)cc1,-1.2,nt,nt,nt,9,
Cc1[nH]c2ccccc2c1/C=N/Nc1ccc(F)cc1F,nt,-7,?,-38,5,

# Five successive records already listed:
SMILES,RecA intein inh,YopH PTP inh,Mtb H37Rv,Arbovirus anti,Mtb bLac sens,others
CCc1ccc(O)c(N=Cc2ccccc2O)c1,-1.2,-39,-7%,5,10,
O=C(c1ccccc1)c1nn(-c2cccc(Cl)c2)c2nc(-c3ccccc3)cc(=O)n12,0.3,-3,nt,-4,27,
Fc1ccccc1C1CCN(Cc2nc(CC3CC3)no2)C1 (centres undefined),-0.1,nt,0%,-3,-11,
Cc1ccc(-n2nc3c(=O)n(CC(=O)NCc4ccccc4)nc(C)c3c2C)cc1,-1.2,nt,nt,nt,9,
Cc1[nH]c2ccccc2c1/C=N/Nc1ccc(F)cc1F,nt,-7,?,-38,5,
